Bioassay records (PubChem)
H5N1 antiviral: MDCK cell protection from H5N1 avian flu; cytopathic effect, luminescence, 72 h; active compounds read high; no value below 0 was filed and about half of the inactive calls have no number; reference of the scale not given here; hit rate 0.07% among 96,000; inhibition, % at 50 µM; AID 740, 2007; in the data active = inhibition above about 25%
Starred values were filed as active, the others as inactive; i = inactive.

Structure	H5N1 antiviral
O=C(NC1CCCc2ccccc21)C1CCN(S(=O)(=O)c2cccc3nsnc23)CC1 (stereo unspecified)	i
O=C(Oc1ccc([N+](=O)[O-])cc1)c1ccc2ccccc2n1	i
Cc1cc2ncn(S(=O)(=O)N3CCCCC3)c2cc1C	2.0
O=C1CCC(C(=O)N(Cc2ccco2)C2(C(=O)NC3CCCC3)CCCCC2)N1 (stereo unspecified)	0.3
COCCNC(=O)c1ccc(C)c(S(=O)(=O)Nc2ccc(C)cc2)c1	i
CC(C)C(=O)Nc1ccc(C(=O)N2CCN(C(=O)c3ccco3)CC2)cc1	i
Cc1nc(SCC(=O)NCc2ccc(F)cc2)c2c(=O)n(C)c(=O)n(C)c2n1	1.8
COc1cc2c(C(=O)N3CCN(C)CC3)c(C)oc2cc1Br	0.6
CCOC(=O)CSC1=C(C#N)C(=O)NC2(CCCCC2)S1	0.2
Cc1occc1C(=O)OCC(=O)Nc1ccc(F)cc1	0.3
COCCNC(=O)c1ccc(NS(=O)(=O)c2cc(C)ccc2C)cc1	i
COc1cc(NC(=O)c2ccc(Br)o2)ccc1NC(=O)c1ccccc1Cl	1.4
C/C(CCc1ccc2c(c1)OCO2)=N\N=C1\NC(=O)CC(C(=O)Nc2ccccc2)S1 (stereo unspecified)	i
CCn1c(=N)n(CC(=O)c2ccco2)c2ccccc21	i
CCCCC1=NN2C(=N)CC(=O)N=C2S1	i
Cc1c(C#N)c2ccccc2n1CC(=O)NC(C)c1ccccc1 (stereo unspecified)	i
O=C(N1CCOCC1)N1CCC(n2nnc3ccccc32)CC1	0.1
Cc1ccc(-c2nc3ccccc3s2)cc1NC(=S)NC(=O)/C=C/c1ccco1	i
CCOC(=O)C1=C(C)NC(=S)NC1c1ccc(-c2cccc(Cl)c2C)o1 (stereo unspecified)	i
Cc1nn(CC(=O)NC(C)c2ccccc2)c(=O)c2ccccc12 (stereo unspecified)	0.8
CCN1C(=O)C(NC(C)=O)c2cc(Br)ccc21 (stereo unspecified)	i
O=C(COc1cccc(OC(F)F)c1)Nc1ccc(SC(F)F)cc1	i
CC(C)(C)n1nc2c(c1NC(=O)COc1ccc3ccccc3c1)CS(=O)(=O)C2	i
CCOC(=O)C1CCCN(c2c(NCC3CCCN3CC)c(=O)c2=O)C1 (stereo unspecified)	0.3
CCN1CCN(S(=O)(=O)c2cccc([N+](=O)[O-])c2)CC1	1.8
CCN1C(=S)SC(=O)C1=C1C=C(C)N(CCO)C(C)=C1	0.4
CCC(=O)Nc1c2c(nn1-c1ccccc1C)CSC2	i
CCOC(=O)N1CCC(NC(=O)c2ccc3c(=O)n4c(nc3c2)CCCC4)CC1	i
CCC1=NN(C(=O)C(=O)Nc2ccc(OC)cc2)C(O)(C(F)(F)F)C1 (stereo unspecified)	i
CC(C)(C)c1cc(/C=N/NC(=O)Cc2nc3ccccc3[nH]2)cc(C(C)(C)C)c1O	1.0
COc1ccccc1NC1=NC(c2ccc(Cl)cc2)N=C(N)N1 (stereo unspecified)	i
COC(=O)C(CC(C)C)Oc1ccc2c(C)cc(=O)oc2c1 (stereo unspecified)	i
C[C@H](NC(=O)NC1CCCc2ccccc21)C(=O)O (stereo partly specified)	i
O=c1c(C(c2nnnn2C2CCCCC2)N2CCCCC2)coc2ccc(Cl)cc12 (stereo unspecified)	i
O=C(Cc1c[nH]c2ccccc12)Nc1nc2ccccc2[nH]1	0.1
N#Cc1sc2nc3c(c(-c4ccco4)c2c1N)CCCC3	i
CCCn1c(NCc2cc(C)ccc2O)nc2ccccc21	2.4
CC(C)(C)c1cn(-c2ccc(F)cc2)c(=S)[nH]1	1.1
CCN(CC)CCCn1c(C)cc2c(c1=O)C(c1cc(OC)c(OC)cc1OC)C(C#N)=C(N)O2 (stereo unspecified)	i
CCOC(=O)COn1c(=O)c(-c2cccs2)[n+]([O-])c2ccccc21	i
CCc1nc2sc3c(c2c(=O)n1N)CCC3	0.3
COC(=O)c1cc2oc(C)cc2n1CC(=O)Nc1ccc(C)c(C)c1	3.2
Cc1[nH]c2ccc(CNS(=O)(=O)c3ccc(S(=O)(=O)N4CCOCC4)cc3)cc2c1C	i
O=C(Nc1ccc2c(c1)OCCO2)C1CCN(S(=O)(=O)c2cccc3nsnc23)CC1	i
CC(C)NC(=O)C(=O)NCCc1ccc(Cl)cc1	i
c1ccc2nc3c(cc2c1)CCCCCC3	1.7
COC(=O)c1ccccc1NC(=O)C1CCN(C(=O)c2cc(OC)c(OC)c(OC)c2)CC1	i
Clc1ccc(OCc2nnc(SCc3nnc(-c4ccccc4)o3)o2)c(Cl)c1	i
Cc1ccc(CNC(=O)C23CN(Cc4ccccc4)CC2C(c2ccc([N+](=O)[O-])cc2)=NO3)cc1 (stereo unspecified)	0.3
Cc1ccc(S(=O)(=O)N2CCN(C(=O)CSc3nnc(C)s3)C2)cc1	1.0

More results:
Structure	H5N1 antiviral
O=C(c1cccc(F)c1)N1CCN(CC2CC3C=CC2C3)CC1 (stereo unspecified)	i
Cn1c(=O)n(C)c2cc([N+](=O)[O-])c(N3CCN(C(=O)c4ccccc4)CC3)cc21	1.8
O=C(C1CCCN1C(=O)c1cccs1)N1CCc2ccccc21 (stereo unspecified)	0.6
O=C(Cn1nc(C(F)(F)F)c2c1CCCCC2)N1CCOCC1	i
[O-]/[N+](=C\c1ccc(OC(F)F)cc1)c1ccccc1	0.4
Cn1c(CSCc2ccc(Cl)cc2)nnc1SCC(=O)Nc1nc2ccccc2s1	i
CC1(C)CC(=O)C2=C(C1)NC(=O)CC2c1cc(F)ccc1F (stereo unspecified)	i
CCOC(=O)CCN(Cc1cccs1)S(=O)(=O)c1ccc(F)cc1	i
O=C(c1cccc(F)c1)N1CCN(c2ccc([N+](=O)[O-])c(N3CCCCC3)c2)CC1	2.4
CCOC(=O)C1(Cc2ccccc2)NC(c2ccccc2F)C2C(=O)N(CC)C(=O)C21 (stereo unspecified)	1.2
COC(=O)Cc1cnc(NC(=O)C2C3CCC(C3)C2C(=O)O)s1 (stereo unspecified)	i
COc1ccc(-n2c(=O)cc(N3CCN(c4ccccc4)CC3)[nH]c2=O)cc1	i
COc1ccc2[nH]c3ccccc3c2c1	i
COc1ccc(N2CCN(C(=O)CCNS(=O)(=O)c3ccc(Br)s3)CC2)cc1	3.3
O=C(O)CCc1ccc(-c2ccccc2)n1NC(=O)c1sc2ccccc2c1Cl	i
Cc1cccc(C)c1OCC(O)CNC(C)(C)C (stereo unspecified)	0.0
COc1ccc(C)cc1N(CC(N)=O)S(=O)(=O)c1ccc(C)cc1	0.9
C=CCn1c(C)cc(C(=O)COc2ncnc3sccc23)c1C	0.9
CC1=NN(C(N)=S)C(=O)C1N=Nc1ccc(C)cc1C (stereo unspecified)	i
Cc1oc2c(O)c(O)ccc2c(=O)c1-c1cnn(-c2ccccc2)c1	0.7
Cc1ccc(-c2csc3ncn(CC(=O)N4CCOCC4)c(=O)c23)cc1C	i
Cn1cc(S(=O)(=O)CC(=O)Nc2ccc(Br)cc2)c2ccccc21	0.3
CCOC(=O)N1CCC(NC(=O)c2ccc3c(c2)sc2nc(-c4ccc(OC)cc4)cn23)CC1	1.0
O=C(O)C1C2C=CC(C2)C1C(=O)Nc1ccc(C(=O)N2CCCCC2)c(Cl)c1 (stereo unspecified)	0.8
CC1=C(C(=O)OC(C)C)C(c2c(O)ccc3ccccc23)NC(=O)N1 (stereo unspecified)	1.5

Sorted by length of the SMILES (low to high): part of the list above
Structure	H5N1 antiviral
[O-]/[N+](=C\c1ccc(OC(F)F)cc1)c1ccccc1	0.4
O=C(c1cccc(F)c1)N1CCN(CC2CC3C=CC2C3)CC1 (stereo unspecified)	i
COC(=O)Cc1cnc(NC(=O)C2C3CCC(C3)C2C(=O)O)s1 (stereo unspecified)	i
Cn1cc(S(=O)(=O)CC(=O)Nc2ccc(Br)cc2)c2ccccc21	0.3
O=C(O)CCc1ccc(-c2ccccc2)n1NC(=O)c1sc2ccccc2c1Cl	i
Cn1c(=O)n(C)c2cc([N+](=O)[O-])c(N3CCN(C(=O)c4ccccc4)CC3)cc21	1.8

New compounds follow
> COc1ccc(C(=O)NCc2cn3c(C)csc3n2)cc1OC
  H5N1 antiviral = 0.2

> O=C(CCN1C(=O)c2ccccc2S1(=O)=O)N1CCN(c2ccccc2)CC1
  H5N1 antiviral = i

> CCc1ccc2c(c1)CCCN2C(=O)c1ccccc1C(=O)O
  H5N1 antiviral = 0.2

> Cc1ccc(C(=O)N2C3C=CC(C3)C2(C(F)(F)F)C(F)(F)F)cc1 (stereo unspecified)
  H5N1 antiviral = 1.6

> O=C(NCCN1CCOCC1)c1ccccc1[N+](=O)[O-]
  H5N1 antiviral = i

> CCCCC(=O)NCCNc1nc2c(c(=O)n(C)c(=O)n2C)n1Cc1ccc(F)cc1
  H5N1 antiviral = 1.7

> O=C(COc1cccc2ccccc12)NNC(=O)Nc1ccccc1
  H5N1 antiviral = i

> CCOC(=O)c1oc2ccccc2c1NC(=O)c1cc(OC)cc(OC)c1
  H5N1 antiviral = i

> CC(C)(C)c1ccc(OCC(=O)NNC(=O)Cc2cccs2)cc1
  H5N1 antiviral = 0.1

> Cc1ccc(NC(=O)N2CCC(C(=O)NCc3ccccc3)CC2)cc1
  H5N1 antiviral = i

> C=CCn1c(=O)c2ccccc2n2c(SCC(=O)NCc3cccs3)nnc12
  H5N1 antiviral = i

> O=C(CCN1CCCC1)Nc1ccccc1
  H5N1 antiviral = 0.3

> C=CCOC(=O)CC(NC(=O)c1ccccc1)c1ccccc1 (stereo unspecified)
  H5N1 antiviral = 1.7

> Cc1sc(NC(=O)c2ccco2)nc1-c1ccccc1
  H5N1 antiviral = i

> Cc1noc(C)c1C(=O)NC1CCCc2ccccc21 (stereo unspecified)
  H5N1 antiviral = 0.3

> Cc1nc(N2CCC(C)CC2)c2oc3ccccc3c2n1
  H5N1 antiviral = 2.6

> CCN1C(=O)C2(C(C#N)=C(N)Oc3n[nH]c(COC)c32)c2ccccc21 (stereo unspecified)
  H5N1 antiviral = i

> O=S(=O)(c1cccc(-c2nc3n(n2)Cc2ccccc2-3)c1)N1CCCC1
  H5N1 antiviral = 1.4

> Cc1nn(Cc2c(F)c(F)c(F)c(F)c2F)c(C)c1NC(=O)c1ccc(COc2ccccc2Cl)cc1
  H5N1 antiviral = 0.1

> COc1ccc(-c2nc(NC(=O)c3cc(C(C)(C)C)nn3C)sc2C)cc1
  H5N1 antiviral = i

> O=C(Nc1ccc(-c2csc(-c3ccccc3)n2)cc1)c1ccccc1
  H5N1 antiviral = 1.0

> N#CC1=C(N)NC(SCC(=O)O)=C(C#N)C12CCCC2
  H5N1 antiviral = 1.6

> COc1cccc(-n2nnnc2SCC(=O)c2cc(OC)ccc2OC)c1
  H5N1 antiviral = 3.2

> COC(=O)c1ccc(C(=O)OC)c(NC(=O)CSCc2ccc(Cl)cc2)c1
  H5N1 antiviral = 1.4

> COC(=O)Cc1cc(=O)n2[nH]c(SC)nc2n1
  H5N1 antiviral = i

> O=C(Nc1ccc2c(c1)OCO2)N1CCN(S(=O)(=O)c2ccc(Cl)cc2)CC1
  H5N1 antiviral = 0.8

> N#Cc1nc(COc2ccc(Cl)cc2Cl)oc1N1CCOCC1
  H5N1 antiviral = i

> COCCN1C(=O)c2oc3ccccc3c(=O)c2C1c1ccc(O)c(OC)c1 (stereo unspecified)
  H5N1 antiviral = 1.8

> NC(=O)C1CCN(C(=O)CSc2nc3ccccc3s2)CC1
  H5N1 antiviral = i

> O=C(NCc1cccnc1)c1cc(-c2ccccc2)on1
  H5N1 antiviral = i

> CCCc1ccc(Oc2cc(C)nc(N3CCOCC3)n2)cc1
  H5N1 antiviral = 0.2

> COC(=O)COc1ccc(S(=O)(=O)Nc2ccccc2C(=O)OC)cc1
  H5N1 antiviral = 2.2

> Cc1cc(NC(=O)COn2nnc3ccc(Cl)cc32)no1
  H5N1 antiviral = i

> CC(C)OCCCNC(=O)C1CCC(=O)N1C1CCCC1 (stereo unspecified)
  H5N1 antiviral = i

> COc1ccc(Nc2nc(N)nc(SCc3nnc(C)s3)n2)cc1
  H5N1 antiviral = i

> Cc1ccccc1NS(=O)(=O)c1ccc(F)cc1
  H5N1 antiviral = 0.2

> COc1ccc(-c2nnc(SCC(=O)/C(C#N)=C(\C)N)o2)cc1
  H5N1 antiviral = 0.0

> COc1cc(-c2nn3c(Cc4ccccc4)nnc3s2)cc(OC)c1OC
  H5N1 antiviral = 4.7

> COCCNC(=O)C(C)OC(=O)c1cc2occc2n1C (stereo unspecified)
  H5N1 antiviral = 0.0

> COc1cccc(-c2nnc(SCC(=O)Nc3cc(C)ccc3OC)n2N)c1
  H5N1 antiviral = 0.7

> COc1cccc(NC(=O)C(NCCC(C)C)c2ccccc2)c1 (stereo unspecified)
  H5N1 antiviral = i

> C[n+]1c2n(c3ccccc31)N=C(c1ccc(Br)cc1)CS2
  H5N1 antiviral = 0.0

> COc1cc(OC)c(NC(=O)CCc2ccccc2)cc1Cl
  H5N1 antiviral = i

> COC(=O)c1c(C)[nH]c(C(=O)COC(=O)Cc2ccc3c(c2)OCCO3)c1C
  H5N1 antiviral = i

> Cn1c(CNc2ccccn2)c(C#N)c2ccccc21
  H5N1 antiviral = 2.5

> COc1ccc(C2C(C(N)=O)=C(C)Nc3nc(-c4ccccc4Cl)nn32)c(OC)c1 (stereo unspecified)
  H5N1 antiviral = 1.5

> Cn1c(SCC(=O)Nc2ccc(F)cc2)nnc1-c1cccnc1
  H5N1 antiviral = i

> O=c1c(Cl)c(N2CCN(S(=O)(=O)c3ccc(F)cc3)CC2)cnn1-c1cccc(Cl)c1
  H5N1 antiviral = i

> Clc1cccc(CSc2nnc(-c3sccc3-n3cccc3)o2)c1
  H5N1 antiviral = i

> Cc1ccc(CNc2cc(-c3nn4c(C)nnc4s3)ccc2C)s1
  H5N1 antiviral = 0.3

> COC(=O)C1=C(C)N=C2SCCC(=O)N2C1c1ccc(C(=O)OC)cc1 (stereo unspecified)
  H5N1 antiviral = 0.4

> Cc1ccccc1C(=O)Nc1ccccc1C(=O)N/N=C\c1ccco1
  H5N1 antiviral = 0.1

Retrieved by compound from the list above (five):
> Cc1cc(NC(=O)COn2nnc3ccc(Cl)cc32)no1
  H5N1 antiviral = i

> Cn1c(SCC(=O)Nc2ccc(F)cc2)nnc1-c1cccnc1
  H5N1 antiviral = i

> O=c1c(Cl)c(N2CCN(S(=O)(=O)c3ccc(F)cc3)CC2)cnn1-c1cccc(Cl)c1
  H5N1 antiviral = i

> Cc1ccccc1C(=O)Nc1ccccc1C(=O)N/N=C\c1ccco1
  H5N1 antiviral = 0.1

> COCCNC(=O)C(C)OC(=O)c1cc2occc2n1C (stereo unspecified)
  H5N1 antiviral = 0.0

Some of the compounds tested (hit frequency here may not be typical).
